# High-throughput results (PubChem)
# Biofilm kill mix = mixture kills Candida albicans biofilm cells | C. albicans biofilm persisters + clotrimazole, fluorescence viability; primary screen in compound mixtures of four per well | inhibition, % at 7.6 µM | actives 0.02% (n = 120,000) | AID 1242;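 active = inhibition above 30.3% in the primary screen of four-compound pools, then above 30% when the compound was retested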;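 also: compounds exposed to preformed 24 h biofilms for 48 h; the number belongs to the whole pool; some results filed as inactive read as strong as hits; inactives centre near 12; 0% = biofilm with clotrimazole alone and 100% = kill control; retested singly at about 60 µM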
#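 System: C. albicans CAF4-2 wild-type biofilms; Medium: RPMI/MOPS medium, pH 7.0; Reagent: Clotrimazole, 50 µg/mL; Times: biofilm formation 24 h, compound exposure 48 h, 37 °C; Detection: 2-h Alamar Blue fluorescence, 535/590 nm excitation/emission; Evaluation: percent inhibition of biofilm viability.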
# Starred values were filed as active, the others as inactive.
SMILES,Biofilm kill mix
O=C(Cc1n[nH]c(=O)c2ccccc12)NCc1ccc(Cl)cc1,4
CC(CNc1ccc([N+](=O)[O-])c2cccnc12)Nc1c([N+](=O)[O-])cc(C(F)(F)F)cc1[N+](=O)[O-] (stereo not drawn),3
O=C(Nc1ccccc1NS(=O)(=O)c1ccc(F)cc1)C1CCCC1,18
N/C(=N\S(=O)(=O)c1ccccc1)c1ccc([N+](=O)[O-])cc1,6
COc1ccc(OCC(O)Cn2ccnc2C)cc1 (stereo not drawn),16
O=C(NCc1ccccc1C(F)(F)F)C1CC(c2ccc(C(F)(F)F)cc2)=NO1 (stereo not drawn),16
O=C(CNc1ccccc1F)N/N=C/C1CC=CCC1 (stereo not drawn),15
CNC(=S)N1CCN(c2ccc(Cl)c(Cl)c2)CC1,14
O=C(/C=C/c1ccc(F)cc1)NCCc1ccc2c(c1)OCCO2,12
O=C(O)c1ccc(NC(=S)NC(=O)c2ccc(-c3ccccc3)cc2)cc1,10
CC(=O)Nc1nc(-c2ccc3c(c2)CCO3)cs1,7
S=C1NCCOCCOCCOCCNC(=S)NCCOCCOCCOCCN1,18
Cc1c(Cl)cccc1NC(=S)NCc1cccs1,15
Cc1cc(C)nc(NS(=O)(=O)c2ccc(NC(=O)C3(c4ccc([N+](=O)[O-])cc4)CCCC3)cc2)n1,8
O=C(Cc1csc(N2CCOCC2)n1)N/N=C/c1ccc(O)c(O)c1O,17
CC(C)CCNC(=O)NC(=O)CSc1ncccn1,17
CCc1cc2cc(C(=O)Nc3ccc(F)cc3)sc2s1,16
O=C(CCNS(=O)(=O)c1ccc(Cl)cc1)NCc1cccs1,19
Cc1ccc(-n2c(-c3cc(-c4ccco4)[nH]n3)n[nH]c2=S)c(Br)c1,40
N#Cc1c(C(F)(F)F)cc(-c2ccc(F)cc2)[nH]c1=O,23
CC(C)C(C(=O)Nc1nccs1)c1ccc(Cl)cc1 (stereo not drawn),12
CC1(c2nnc(-c3ccc(F)cc3)o2)CC(c2c(Cl)cccc2Cl)=NO1 (stereo not drawn),9
NC(=O)c1ccc(Oc2ccc(C(N)=O)cc2)cc1,11
CCOc1cc(NC(=S)NCc2ccco2)c(OCC)cc1NC(=O)CC(C)C,17
O=C(NNS(=O)(=O)c1ccccc1[N+](=O)[O-])c1ccc(F)cc1,27
# (list continues)
SMILES,Biofilm kill mix
COC(=O)CC/C(O)=C1\C(=O)CC(C)(C)CC1=NCc1nc2ccccc2[nH]1,19
O=C(O)/C=C/c1ccc([N+](=O)[O-])o1,6
COCCCC1CCN(C(=O)CCc2nnc(CCCCc3ccccc3)o2)CC1,23
Cc1cccc2cc(/C=N/NC(=O)[C@H]3C[C@@H]3c3ccccc3)c(Cl)nc12,21
O=C(COC(=O)C1CSC2(c3ccc(F)cc3)CCC(=O)N12)NC(=O)NC1CCCC1 (stereo not drawn),29
Cc1cccc(C(=O)NNC(=O)/C=C/C(=O)O)c1,14
CC(=O)Nc1ccc(C(=O)N/N=C/c2ccncc2)cc1,18
N#C/C(=C\c1ccc(-c2cccc(C(F)(F)F)c2)o1)C(=O)Nn1cnnc1,9
Cc1ccc2c(c1)C1CN(C)CCC1N2C(=O)c1cccc(S(=O)(=O)N2CC(C)CC(C)C2)c1 (stereo not drawn),5
CCS(=O)(=O)NCCc1csc(-c2ccc(OC)c(OC)c2)n1,38
COc1ccc(NS(=O)(=O)c2cc(NC(=O)/C=C/c3cccs3)ccc2N2CCOCC2)cc1,8
CCc1ccccc1NC(=S)N(Cc1ccco1)C(C)c1cccs1 (stereo not drawn),21
Cc1cc(C)cc(OCC(=O)Nc2ccc(S(=O)(=O)Nc3ccccn3)cc2)c1,-2
CC(C)C(=O)NC(Nc1cccc([N+](=O)[O-])c1)C(Cl)(Cl)Cl (stereo not drawn),5
Cc1ccccc1SC1CCN(Cc2nc(C3CC3)no2)CC1,7
O=P(COCCCCCOCP(=O)(c1ccccc1)c1ccccc1)(c1ccccc1)c1ccccc1,7
O=[N+]([O-])c1cccc(-c2csc(CS(=O)(=O)Cc3ccco3)n2)c1,16
OCC[n+]1ccc(/C=C/c2c[nH]c3ccccc23)cc1,21
O=C(O)/C(=C/c1ccco1)c1ccccc1,8
CCCN(CCC)CCCNC(=S)Nc1ccc2nc(N3CCCC3)cc(C)c2c1,11
S=C(NCc1cccnc1)Nc1ccc(Oc2ccc(Cl)cc2)cc1,20
O=C(CSc1ncc(-c2ccccc2)[nH]1)Nc1ccccc1F,13
COc1ccc(N2C(=O)CS(=O)C(c3ccccc3)C2=O)cc1 (stereo not drawn),5
COc1ccc(-c2noc(=O)n2CC(=O)N2CCC(Cc3ccccc3)CC2)cc1,15
Cc1cc(C)cc(-n2c(C)cc(/C=C3\C(=N)N4N=C(CC(C)C)SC4=NC3=O)c2C)c1,16

# Fetched by compound from the list above (6):
SMILES,Biofilm kill mix
COc1ccc(N2C(=O)CS(=O)C(c3ccccc3)C2=O)cc1 (stereo not drawn),5
COCCCC1CCN(C(=O)CCc2nnc(CCCCc3ccccc3)o2)CC1,23
Cc1cccc(C(=O)NNC(=O)/C=C/C(=O)O)c1,14
O=C(Nc1ccccc1NS(=O)(=O)c1ccc(F)cc1)C1CCCC1,18
O=C(NNS(=O)(=O)c1ccccc1[N+](=O)[O-])c1ccc(F)cc1,27
N#C/C(=C\c1ccc(-c2cccc(C(F)(F)F)c2)o1)C(=O)Nn1cnnc1,9

# Continued.
SMILES,Biofilm kill mix
CN(C)CCP(=O)(c1ccccc1)c1ccccc1,-20
Cc1ccc(/C=N/NC(=O)c2ccco2)cc1,25
Cc1ccc2c(CC(=O)N3CCN(c4ccccc4)CC3)coc2c1,3
CCOC(=O)C1=C(C)NC(=S)NC1/C=C/c1ccccc1 (stereo not drawn),-1
C/C(N)=C(/C#N)C(=O)COC(=O)c1cc2c(s1)CCCC2,7
CC(C)N1C(=O)CCC1C(=O)NCc1ccccc1Cl (stereo not drawn),0
COc1ccc(NC(=O)c2ccccc2S(=O)c2ccccc2C#N)cc1 (stereo not drawn),7
O=[N+]([O-])c1ccc(/C=C/C2=NN(c3ccccc3)C(c3ccco3)C2)cc1 (stereo not drawn),1
CCC1S/C(=N/N=C/c2ccco2)N(Cc2ccc(F)cc2)C1=O (stereo not drawn),16
Cc1cc(/C=C(\C#N)C(=O)Nc2ccccc2)c(C)n1-c1ccc(C(=O)O)cc1,14
Cc1cc(C)c(S(=O)(=O)Nc2ccccc2C(=O)OCC(=O)NCc2ccccc2)c(C)c1,12
CCOCCc1nnc(NC(=O)Cc2c(F)cccc2Cl)s1,9
Cc1ccc(Cn2nnc3c(=O)n(CC(=O)NCc4ccccc4)cnc32)cc1,13
O=C(NC(=O)N1CCCC1)c1csnn1,4
CCCNC(=O)COC(=O)c1ccccc1C(=O)c1ccc(Cl)c([N+](=O)[O-])c1,10
CSc1nc2ccccc2s1,-12
COc1ccc(Cl)cc1-c1nc(SCC(=O)N(C)C)n[nH]1,8
Cc1c(NC(=S)NC(NC(=O)C(C)C)C(Cl)(Cl)Cl)c(=O)n(-c2ccccc2)n1C (stereo not drawn),12
CCN(C(=O)COC(=O)c1c(C)c(-c2ccccc2)nc2ccccc12)C1CCS(=O)(=O)C1 (stereo not drawn),8
COc1cccc(-n2c(O)c(C=NCc3ccccn3)c3ccccc3c2=O)c1,18
CCc1ccc2nc(/N=C(\N)NC(=O)c3ccccc3)nc(C)c2c1,20
Oc1ccc(N=Nc2ccc3c(c2)OCCO3)c2cccnc12,17
NS(=O)(=O)c1ccc(C(=O)Nc2ccc(-c3nc4cccnc4s3)cc2)cc1,-9
CN(C)c1ccc(C2CC(=O)OC3=C2C(=O)CC(C)(C)C3)cc1 (stereo not drawn),11
O=[N+]([O-])c1cccc(S(=O)(=O)N2CCCCCC2)c1,16
# Continuation.
SMILES,Biofilm kill mix
Cn1c(CNC(=O)c2cccs2)n[nH]c1=S,8
Cc1ccc(C(=O)NCC(=O)OCC(=O)Nc2ncc(C(F)(F)F)cc2Cl)cc1,13
CCn1c(SCC(=O)N/N=C/C=C/c2ccccc2[N+](=O)[O-])nnc1-c1ccc(Cl)cc1,16
N#Cc1ccsc1NC(=O)CN1CCOCC1,13
COc1ccc(/C=N/Nc2nc(Nc3ccccc3)nc(N3CCCC3)n2)cc1,12
COc1ccccc1N(CN1C(=O)c2ccccc2C1=O)C(=O)c1cccc(C)c1,7
CCOC(=O)C1(CCc2ccccc2)CCN(Cc2ccccn2)CC1,14
CC(=O)OCC(=O)Nc1ccc(N=Nc2ccccc2)cc1,5
CC1CCN(C(=O)Cn2cnc3c(cnn3C(C)(C)C)c2=O)CC1,-17
CC(C)=NNc1nc(-c2ccccc2)cs1,12
O=c1c([N+](=O)[O-])cccn1Cc1ccccc1Cl,10
Cc1ccc(Nc2nnc(SCC(=O)Nc3cccc(S(=O)(=O)N4CCCCC4)c3)s2)cc1,9
Cc1cccc(/C=C/C(=O)c2ccc(NC3=NCCCS3)cc2)c1,24
O=C(Nc1ccc(S(=O)(=O)N2CCCCC2c2cccnc2)cc1)c1ccccc1F (stereo not drawn),16
CC(C)C(=O)N1CCN(c2nc(-c3ccc(Cl)cc3)cs2)CC1,13
Cc1ccc(C)c(SCC(=O)OCC(=O)N2CC(C)OC(C)C2)c1 (stereo not drawn),11
C#CCn1c(-c2ccccc2)ccc(C#N)c1=O,15
CC(=O)c1c(O)cc(O)cc1CC(=O)O,21
O=C(CSc1nc2cc(S(=O)(=O)N3CCOCC3)ccc2o1)Nc1c(F)cccc1F,21
COc1ccc(N(CC(=O)Nc2ccc3c(c2)OCO3)S(=O)(=O)c2ccc(C)cc2)cc1OC,18
O=C(c1ccc(S(=O)(=O)NCc2ccco2)cc1)N1CCCC1,2
CC(=O)Nc1ccc(/C(C)=N/NC(=O)c2ccncc2)cc1,15
COc1ccc(N2CCN(C(=O)/C(C#N)=C/c3ccccc3)CC2)cc1,11
COc1ccc2nc(N3C(=O)/C(=C/c4ccccc4)NC3=S)sc2c1,17
C=CCNC(=O)c1ccccc1CCc1ccccc1,-7
# (cont.)
SMILES,Biofilm kill mix
O=CN(c1ccccc1)c1ccc2ccccc2c1,13
CN(C)C(=O)COc1ccc(Oc2ccccc2)cc1,7
CCCNC(=S)Nc1c(C)n(C)n(-c2ccccc2)c1=O,15
CN(C)c1ccc(NC(=O)N2CCOCC2)cc1,19
COc1ccc(N2CCN(C(=O)c3ccc(Cn4c(=S)[nH]c5ccc(N6CCOCC6)cc5c4=O)cc3)CC2)cc1,11
COCCn1c(N)c(C(=S)NC(=O)c2cccs2)c(=O)[nH]c1=O,5
Cc1cc(SCC(=O)Nc2ncc(Cl)cc2Cl)nc2ccccc12,24
Cn1c(SCC2CCCO2)nnc1-c1ccc([N+](=O)[O-])cc1 (stereo not drawn),19
COc1ccc(NC(=O)c2cc(S(=O)(=O)Nc3ccc(OC)cc3)cs2)cc1,2
CC1Cc2cc(/C(O)=C3/C(=O)C(=O)N(CCN4CCOCC4)C3c3ccc(C(C)C)cc3)ccc2O1 (stereo not drawn),8
COc1cccc(-c2nnc(NC(=O)c3ccc(Cl)s3)o2)c1,6
Cc1ccc(-c2cc(-c3ccccc3C)[nH]n2)c(O)c1,14
CCSc1nnc(CNC(=O)c2ccccc2F)n1-c1ccccc1OC,10
COc1ccc(N(CC(=O)Nc2ccc3c(c2)OCO3)S(=O)(=O)c2ccccc2)cc1,-8
COc1ccc(-c2csc(-c3ccc(O)cc3)n2)cc1,0
CCN(CC)CCCN=C(C)C1=C(O)c2ccccc2C1=O,18
Cc1cccc(N2CCN(CC(O)COCc3cccs3)CC2)c1C (stereo not drawn),5
O=C(c1ccccc1)N1CCN(c2n[nH]c(=O)[nH]c2=O)CC1,9
c1ccc(-c2ccccc2OCCCN2CCCCCC2)cc1,6
Cc1ccc(N2C(=O)c3cccc4c(C(=O)O)ccc(c34)C2=O)cc1,27
COc1ccc(/C=C2\Oc3cc(OC(=O)N4CCOCC4)ccc3C2=O)cc1,17
O=c1c2[nH]c3ccc(F)cc3c2nc2n1CCCS2,14
COc1ccc(C(O)P(=O)(OCc2ccccc2)c2ccc(N(C)C)cc2)cc1 (stereo not drawn),19
Cc1[nH]c2ccccc2c1C(C[N+](=O)[O-])c1cccc(O)c1 (stereo not drawn),14
O=S(=O)(c1ccc(Cl)cc1)N1CCNCC1,-2
# Next section.
SMILES,Biofilm kill mix
O=C(CC(c1ccccc1)c1ccccc1)Nc1ccncc1,19
COc1cc(/C=N\NC(=O)c2ccc(C)nc2)ccc1OC(=O)c1ccc2c(c1)OCO2,18
CN1CCN(C(=O)C23CC4CC(C)(CC(C)(C4)C2)C3)CC1,14
CC(C)OCCCNC(=O)Cc1ccc(F)cc1,5
CC(=O)Nc1c(O)nc(C)[nH]c1=O,23
C/C(=N\NC(=O)c1cc(-c2cccc([N+](=O)[O-])c2)n[nH]1)c1ccccc1O,10
COCCCNC(=S)N1CCN(c2ccccc2)CC1,7
NC(=O)c1sc2nc(-c3cccnc3)ccc2c1N,22
Cc1ccc(NC(=O)CN2C(=O)CSC2=O)cc1,18
Cc1ccc(/C=C2\S/C(=N/S(=O)(=O)c3cccs3)NC2=O)cc1,16
COc1ccc(-c2nnc3n(CCc4ccccc4)c(=O)c4ccccc4n23)cc1OC,-9

# Structures listed so far with a COOH group:
SMILES,Biofilm kill mix
O=C(O)c1ccc(NC(=S)NC(=O)c2ccc(-c3ccccc3)cc2)cc1,10
O=C(O)/C=C/c1ccc([N+](=O)[O-])o1,6
Cc1cccc(C(=O)NNC(=O)/C=C/C(=O)O)c1,14
O=C(O)/C(=C/c1ccco1)c1ccccc1,8
Cc1cc(/C=C(\C#N)C(=O)Nc2ccccc2)c(C)n1-c1ccc(C(=O)O)cc1,14
CC(=O)c1c(O)cc(O)cc1CC(=O)O,21
Cc1ccc(N2C(=O)c3cccc4c(C(=O)O)ccc(c34)C2=O)cc1,27

# Quoted from the listing:
# CC(C)OCCCNC(=O)Cc1ccc(F)cc1 @ Biofilm kill mix: 5
# CN1CCN(C(=O)C23CC4CC(C)(CC(C)(C4)C2)C3)CC1 @ Biofilm kill mix: 14
# COCCCNC(=S)N1CCN(c2ccccc2)CC1 @ Biofilm kill mix: 7

# A portion of the library; count on the stated rates, not on these rows.
